KCNQ2 block = KCNQ2 potassium channel inhibitors, primary screen, cell-based, CHO-K1, FluxOR thallium flux, B-score (AID 2156) | Potassium voltage-gated channel subfamily KQT member 2 (Rattus norvegicus), O88943 | 20 min; hits give low values; only compounds with negative scores are shown here; some inactives read as strong as hits | B-score at 10 µM | 310,000 compounds, 1.1% hits;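 active = fluorescence ratio B-score at most minus 3 library SDs, with starting brightness B-score within 2 library SDs, cut at about -5.5 in these data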
KCNQ2 block baseline = also measured in KCNQ2 block; calls as there; B-score; measured here: initial fluorescence intensity artifact check;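 brightness before thallium and not channel activity; 0 = typical well and far values either way flag optical interference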
Starred values were filed as active, the others as inactive; i = inactive. Some of the compounds tested; rates above refer to the full screens.

Molecule | KCNQ2 block | KCNQ2 block baseline
O=C1NC(=O)C(C(CC(=O)c2ccccc2)c2ccccc2)C(=O)N1 (configuration not stated) | i | 0.47
Cc1ccc(N2C(=O)NC(=O)/C(=C\c3ccoc3)C2=O)cc1 | i | 1.48
COC(=O)C1=C(c2ccccc2)C[C@@H]2CC[C@H]1N2C(=O)NCc1ccc(F)cc1 | i | 0.52
O=C(N/N=C/c1c(O)n(C2CC2)c(=S)[nH]c1=O)c1ccccc1Cl | i | 2.58
COc1ccc(-n2c(/C=C/c3ccc(O)cc3)nc3ccccc3c2=O)cc1 | i | 1.23
Cc1noc(C)c1C(=O)N1CCC2(CC1)OCCO2 | i | -0.71
Cc1ccc2c(c1)C1CN(C)CCC1N2C(=O)CCCN1C(=O)c2cccc3cccc(c23)C1=O (configuration not stated) | i | 0.88
C[N+]12CCC(CC1)C(=C(c1ccccc1)c1ccccc1)C2 | i | -0.28
Cc1ccc(S(=O)(=O)NCC2CCC(C(=O)N3CCC4(CC3)OCCO4)CC2)cc1 (configuration not stated) | i | -0.05
COc1ccc(N=Nc2c(O)[nH]c(=S)[nH]c2=O)cc1 | i | 1.52
CC(NCc1ccc(Cl)c(Cl)c1)C(O)c1ccccc1 (configuration not stated) | i | -0.84
Oc1ccccc1-[n+]1c(-c2ccccc2)cc(-c2ccccc2)cc1-c1ccccc1 | -7.58* | -0.79*

New compounds follow:
Molecule | KCNQ2 block | KCNQ2 block baseline
C=Cn1ccnc1P(=S)(c1nccn1C=C)C1CCCCC1 | i | 0.8
Cc1ccc(OCC(=O)N2CCN(C)CC2)c(Br)c1 | i | 0.6
N#CC12CNCC1CN=N2 (configuration not stated) | i | -2.14
CCNc1nc2[nH]c(=O)c3c(c2s1)OC(N)=C(C#N)C3c1cccs1 (configuration not stated) | i | -0.87
COc1ccc(C(=O)C(C)(C)NO)cc1 | i | -1.27
CN(Cc1ccccc1)Cc1ccccc1OC(=O)N(C)C | i | -0.08
COC(=O)c1cn(C(=O)c2cccc3ccccc23)c2ccccc12 | i | 0.19
COc1ccccc1CC1/C(=N/O)C2CCN1CC2 (configuration not stated) | i | -0.92
Cc1cccc(NP(=O)(Oc2ccccc2F)Oc2ccccc2F)c1C | i | 0.26
O=C(c1ccc(CNS(=O)(=O)c2ccc(Br)cc2)cc1)N1CCC2(CC1)OCCO2 | i | -0.91
COc1cc2c3cc1Oc1cc(ccc1O)C[C@@H]1c4c(cc(OC)c(O)c4Oc4ccc(cc4)C[C@H]3N(C)CC2)CCN1C | i | -0.55
COC(=O)C1C2c3ccccc3OC1(C)N=c1s/c(=C/c3cnn(C)c3)c(=O)n12 (configuration not stated) | i | 0.89

(further entries)
Molecule | KCNQ2 block | KCNQ2 block baseline
COc1cccc(C(=O)C2CCCN(Cc3cccc4c3OCO4)C2)c1 (configuration not stated) | i | 0.08
CCCOC(=O)Nc1ccc([As](=O)(O)O)cc1NC(=O)OCCC | i | 1.71
CN1C(=O)N(C)C(=O)C2(Cc3cc(N)ccc3N3CCN(c4ccccc4F)CC32)C1=O (configuration not stated) | i | 1.91
Clc1ccc(-c2nc3ccc(Cl)cn3c2CN2CCCCC2)cc1 | i | -2.27
O=C1NC(=O)N(c2cccc(Cl)c2)C(=O)/C1=C\c1ccc(Sc2nc3ccccc3[nH]2)o1 | i | 0.1
Clc1ccccc1CN1CCN(c2cccc3[nH]ccc23)CC1 | i | 0.42
C=CCn1c(O)c(/C=N/N2CCCCC2c2cccnc2)c(=O)[nH]c1=S (configuration not stated) | i | 0.73
CC[N+](CC)(CC)CC | i | -0.24
Cc1nc(SCc2c(Cl)cccc2Cl)nc(OC(=O)N(C)C)c1C | i | 0.34
CN(C)C(=O)Oc1ccc(OC(=O)c2ccccc2)cc1 | i | 1.74
CCCN1CCC(NC2CCC(O)CC2)CC1 (configuration not stated) | i | 1.08
CC(=O)NCCc1c[nH]c2ccccc12 | i | -0.79

Already shown: entries from further up.
Molecule | KCNQ2 block | KCNQ2 block baseline
CN(Cc1ccccc1)Cc1ccccc1OC(=O)N(C)C | i | -0.08
COC(=O)c1cn(C(=O)c2cccc3ccccc23)c2ccccc12 | i | 0.19
COc1ccccc1CC1/C(=N/O)C2CCN1CC2 (configuration not stated) | i | -0.92
Cc1cccc(NP(=O)(Oc2ccccc2F)Oc2ccccc2F)c1C | i | 0.26
O=C(c1ccc(CNS(=O)(=O)c2ccc(Br)cc2)cc1)N1CCC2(CC1)OCCO2 | i | -0.91
COc1cc2c3cc1Oc1cc(ccc1O)C[C@@H]1c4c(cc(OC)c(O)c4Oc4ccc(cc4)C[C@H]3N(C)CC2)CCN1C | i | -0.55
COC(=O)C1C2c3ccccc3OC1(C)N=c1s/c(=C/c3cnn(C)c3)c(=O)n12 (configuration not stated) | i | 0.89
COc1cccc(C(=O)C2CCCN(Cc3cccc4c3OCO4)C2)c1 (configuration not stated) | i | 0.08
CCCOC(=O)Nc1ccc([As](=O)(O)O)cc1NC(=O)OCCC | i | 1.71
CN1C(=O)N(C)C(=O)C2(Cc3cc(N)ccc3N3CCN(c4ccccc4F)CC32)C1=O (configuration not stated) | i | 1.91
Clc1ccc(-c2nc3ccc(Cl)cn3c2CN2CCCCC2)cc1 | i | -2.27
O=C1NC(=O)N(c2cccc(Cl)c2)C(=O)/C1=C\c1ccc(Sc2nc3ccccc3[nH]2)o1 | i | 0.1
Clc1ccccc1CN1CCN(c2cccc3[nH]ccc23)CC1 | i | 0.42
C=CCn1c(O)c(/C=N/N2CCCCC2c2cccnc2)c(=O)[nH]c1=S (configuration not stated) | i | 0.73
CC[N+](CC)(CC)CC | i | -0.24
Cc1nc(SCc2c(Cl)cccc2Cl)nc(OC(=O)N(C)C)c1C | i | 0.34
CN(C)C(=O)Oc1ccc(OC(=O)c2ccccc2)cc1 | i | 1.74
CCCN1CCC(NC2CCC(O)CC2)CC1 (configuration not stated) | i | 1.08
CC(=O)NCCc1c[nH]c2ccccc12 | i | -0.79

(cont.)
Molecule | KCNQ2 block | KCNQ2 block baseline
Cn1c(O)c(/C=C/C=Nc2ccccc2)c(=O)n(C)c1=O | i | 2.41
O=C(COC(=O)Cc1ccccc1)Nc1ccc(Cl)cn1 | i | -1.43
CN(C)C(=O)Oc1cc(=O)n2c3c(cccc13)CCC2 | i | 0.76
CCCCOC(=O)C1=C(N)OC2=C(C(=O)CC(C)(C)C2)[C@]12C(=O)N(C)c1ccccc12 | i | -0.98
O=C(CCN1CCOCC1)Nc1ccc(Br)cc1C(=O)c1ccccc1 | i | 0.5
COc1ccc(N=Cc2c(O)n(Cc3cccs3)c(=O)[nH]c2=O)cc1 | i | 1.79
CSc1nnc(C2CCNCC2)n1C | i | 0.09
CN(C)CC1CSCCC1(O)c1ccccc1 (configuration not stated) | i | 0.96
CN1C(=O)C(=Cc2ccc(OCC(=O)Nc3ccccc3)cc2)C(=O)N(C)C1=O | i | -3.87
Cc1ccc2c(c1)C1CN(C)CCC1N2C(=O)/C=C/c1ccc2c(c1)OCO2 (configuration not stated) | i | -0.62
CN1C(=O)N(C)C(=O)C2(Cc3c(nc4ccccn4c3=O)N3CCc4ccccc4C32)C1=O (configuration not stated) | i | -0.37
CC1(C)CC(=O)C(C2(O)C(=O)NC(=O)NC2=O)=C(O)C1 | i | -0.05

Screening data from PubChem.
